From PubChem
Ab BasE inh: blocks the Acinetobacter baumannii siderophore enzyme BasE | inhibition, % (no concentration beside the values) | purified BasE, fluorescence polarization binding displacement | AID 485350 | 0.1% of 84,000 active;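 active = both replicates above 25% with normal brightness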;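 note: 0% = negative plate control signal and 100% = positive plate control signal; stock transfer was 100 nL into about 30 µL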
KSHV LANA nucl: LANA-nucleosome interaction inhibition; z-score (no concentration beside the values); 0.3% of 51,000 active; AID 720717; FITC-LANA1-23 / chicken nucleosome fluorescence polarization; stronger effect = lower value;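 active = both repeat wells score below -2 in polarization z-score versus plate sample wells, excluding overly bright wells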;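 note: 100 nL library stock added to about 30 µL; numbers are from one replicate; some results filed as inactive read as strong as hits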
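test system = FITC-LANA peptide and chicken nucleosomes | amount = 240 nM purified chicken nucleosomes (480 nM peptide binding sites), final | reagent = 50 nM FITC-LANA1-23 probe | medium = TEN-BT buffer, pH 7.5 | doses = single compound addition by pin transfer, 100 nL per well | timing = 10–45 min, room temperature | detection = fluorescence polarization | repeats = duplicate plates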
* hit, by the source's call; nt = no result given; & = joins results of further samples.

#	compound	Ab BasE inh	KSHV LANA nucl
1	CN(C(=O)CSc1nc(-c2ccccc2)cn1N)C1CCS(=O)(=O)C1 (stereo not given)	0.7	nt
2	CN1C(=O)N(C)c2cccc3cccc1c23	0.4	-0.15
3	CC(C)(C)C1=C(C#N)C(c2cccs2)C(C#N)=C(NC(=O)NC(=O)c2c(F)cccc2Cl)O1 (stereo not given)	-0.7	nt
4	N#Cc1c(N2CCCC2)oc2nc3ccccc3nc12	-1.2	nt
5	CCC(=O)N1CCN=C1SCc1ccccc1	0.9	0.5
6	COc1ccccc1CN1C(=O)NC2(CCOc3ccccc32)C1=O (stereo not given)	2.1	nt
7	CC(=O)Nc1c(C)[nH]n(-c2ccccc2)c1=O	1.4	nt
8	O=C(CSC1CC(=O)N(c2ccccc2)C1=O)Nc1ccc(Cl)cc1 (stereo not given)	3.5	nt
9	O=C(O)COCCN1CCN([C@H](c2ccccc2)c2ccc(Cl)cc2)CC1	nt	0.068
10	COC(=O)c1cc(OC)c(OC)cc1NC(=O)c1cnc(N(C)C)nc1C(F)(F)F	2.3	-0.92

Profiles, looked up by structure.
Shown for CN1C(=O)N(C)c2cccc3cccc1c23 → Ab BasE inh: 0.4; KSHV LANA nucl: -0.15
Shown for CN(C(=O)CSc1nc(-c2ccccc2)cn1N)C1CCS(=O)(=O)C1 (stereo not given) → Ab BasE inh: 0.7; KSHV LANA nucl: nt

Other compounds follow:
#	compound	Ab BasE inh	KSHV LANA nucl
11	CN(C)c1cccc(N(C)C)c1CNC(=O)Nc1ccc(Cl)cc1	0.3	0.015
12	C=C(C)CN(CC)c1nc(N)c2c(N)nc3c(c2c1C#N)CC(=O)N3C12CC3CC(CC(C3)C1)C2	1.5	nt
13	COc1ccc(CCN2CC(C#N)=C3c4cc(OC)c(OC)cc4CCN3C2)cc1OC	-1.9	0.27
14	Cc1cccc(-c2nc3scc(CCNC(=O)C(C)(C)C)n3n2)c1	1.9	1.2
15	COc1cccc2cc(C(=O)C3=C(O)C(=O)N(CCCN4CCOCC4)C3c3ccc(C)cc3)oc12 (stereo not given)	0.6	0.53
16	CCC(=O)Nc1cccc(-c2nc3ccccc3[nH]2)c1C	1.2	-0.98
17	CCC(=O)N(c1nnc(SCC(=O)c2c(N)n(C)c(=O)[nH]c2=O)s1)C1CC1	-0.5	nt
18	CCCCn1[nH]c(-c2ccccc2)cc1=O	0.4	nt
19	CS(=O)(=O)c1ccc(Cl)c(NC(=O)CN2CCc3sccc3C2c2cccs2)c1 (stereo not given)	-0.6	nt
20	CCC(=O)Nc1ccc2c(c1)ncn2-c1ccccc1	-1.8	-0.22
21	Cn1c2c(c(=O)n(C)c1=O)CN(CC1CC1)CN2	2.1	nt
22	CCC(CC)NC(=O)COc1nc2ccccc2nc1C	-0.8	nt
23	O=C(NC1C2CC3CC(C2)CC1C3)c1cccs1 (stereo not given)	-2.8	0.22
24	CNC(=O)/C(C#N)=C/c1cn(CCOc2ccccc2)c2ccccc12	-0.3	0.25
25	CCOC(=O)C(Sc1nncn1-c1ccccc1C)c1ccccc1 (stereo not given)	-0.5	nt
26	O=C1c2ccccc2C(=O)c2c1ccc(O)c2O	5.8	-0.38
27	CCOC(=O)c1cc2c(s1)-c1c(C)cccc1OC2	1.1	-0.54
28	Cc1nn(CCC(=O)NC2CCCC2)c(=O)c2nn(-c3ccccc3)c(C)c12	-15	nt
29	O=C(NCc1ccco1)c1cc(-c2ccc(Cl)cc2)oc1C(F)(F)F	5.6	nt
30	Cc1occc1C(=O)N/N=C/C1CCCCC1	-2.3	0.17
31	CCOC(=O)C1CCCN(Cc2nc(N)nc(Nc3ccc(Cl)cc3)n2)C1 (stereo not given)	1.2	nt
32	CCOC(=O)C1CCN(C(=O)C2CCCCC2)CC1	5.1	-0.44
33	CC(=O)Nc1c(C)sc(C)c1C(=O)O	-3.2	1.5
34	CC(=O)NC(C(=O)NNc1c(Cl)cc(Cl)cc1Cl)C(C)C (stereo not given)	1.9	nt
35	Cc1nnc(NC(=O)CSc2ncccn2)s1	-1.8	1.3
36	Cc1cc(C)n2ncc(C(=O)Nc3cccc(C(F)(F)F)c3)c2n1	1.1	-0.45
37	CCCN1C2CCCC1CC(NC(=O)c1ccccc1C)C2 (stereo not given)	0.8	-0.11
38	Cc1cc2nc3c(=O)[nH]c(=O)nc-3n(CC(O)C(O)C(O)CO)c2cc1C (stereo not given)	15&14	-6.9&-9&3.5
39	CC(C)=CC(=O)Oc1ccc(Br)cc1	0.1	-0.76
40	COCC(C)NC(=O)c1ccccc1OC(C)=O (stereo not given)	0.1	-0.9

Next section, starting with the last 5 of the part before.
#	compound	Ab BasE inh	KSHV LANA nucl
36	Cc1cc(C)n2ncc(C(=O)Nc3cccc(C(F)(F)F)c3)c2n1	1.1	-0.45
37	CCCN1C2CCCC1CC(NC(=O)c1ccccc1C)C2 (stereo not given)	0.8	-0.11
38	Cc1cc2nc3c(=O)[nH]c(=O)nc-3n(CC(O)C(O)C(O)CO)c2cc1C (stereo not given)	15&14	-6.9&-9&3.5
39	CC(C)=CC(=O)Oc1ccc(Br)cc1	0.1	-0.76
40	COCC(C)NC(=O)c1ccccc1OC(C)=O (stereo not given)	0.1	-0.9
41	O=C(Nc1ccc(N2CCOCC2)cc1)c1ncn[nH]1	-1.8	0.87
42	CCCCCc1c(C)c(C#N)c2nc3ccccc3n2c1-n1ccnc1	1.2	-0.63
43	O=C(CSc1ncnc2sccc12)NC(=O)CN1CCCC1=O	2.4	nt
44	COC(=O)c1sccc1-c1ccc(CN2CCCc3cc(OC)ccc32)o1	-0.5	nt
45	CC1(C)NC(=O)N(CC(O)Cn2c3ccccc3c3ccccc32)C1=O (stereo not given)	1.7	nt
46	CO[C@H]1CC(O[C@@H]2/C(C)=C/C[C@@H]3C[C@@H](C[C@]4(CC[C@H](C)[C@@H](C5CCCCC5)O4)O3)OC(=O)[C@@H]3C=C(C)/C(=N/O)[C@H]4OC/C(=C\C=C\[C@@H]2C)[C@]43O)O[C@@H](C)C1O (stereo not given in full)	-0.2	0.068&-1.1
47	CCSCC(=O)Nc1ccc(F)cc1	-0.2	-0.17
48	Cc1ccccc1Cn1c(=O)n(CCC(C)C)c(=O)c2cccnc21	-0.5	-1.6
49	CCOC(=O)CCN1C(=O)c2ccccc2Sc2ncccc21	-0.7	-0.73
50	COC(=O)c1cc(OC)c(OC)cc1NC(=S)N1CCN(c2ccccn2)CC1	0.0	0.068
51	CN(CC(=O)Nc1ccc(Cl)cc1)C1CCCCC1	-5.4	2.3
52	COc1ccc(N(CC(=O)N2CCN(c3ccccc3F)CC2)S(=O)(=O)c2c(C)nn(C)c2C)cc1	-2.4	2.8
53	Cc1ccc(CN2CCc3nc(SCC(=O)NCCc4ccccc4)[nH]c(=O)c3C2)cc1	0.1	-1.6
54	Oc1ccccc1OCc1ccc2ccccc2n1	0.2	nt
55	CC(=O)N(C)c1ccc(C(O)(C(F)(F)F)C(F)(F)F)cc1	1.6	nt
56	COc1cccc(NC(=O)C(C#N)Cc2cccs2)c1 (stereo not given)	-0.9	0.12
57	O=C(O)C1(c2ccccc2)CCN(S(=O)(=O)c2ccccc2)CC1	-3.4	nt
58	O=C[C@@H]1CCCN1C(=O)[C@@H]1CCCN1C(=O)OCc1ccccc1	0.6	0.4
59	O=C(O)/C=C/C(=O)N1CCCCC1	0.8	nt
60	N#C/C(=C\c1cn(CCOc2ccccc2F)c2ccccc12)C(=O)NC1CC1	0.2	0.26
61	COc1ccc(Cl)cc1NC(=S)N1CCCCC1CO (stereo not given)	-0.2	0.19
62	CCCC1=NN(c2ccccc2)C(=O)/C1=C/c1ccc2c(c1)OCO2	3.1	nt
63	Cc1noc(C)c1C(=O)Nc1ccc(S(=O)(=O)N2CCCCC2)cc1	1.4	nt
64	CC(C)C(=O)Nc1nnc(-c2ccccc2)o1	3.1	0.31
65	CCOc1ccc2sc(NC(=O)NC(C)N3C(=O)C4C5C=CC(C5)C4C3=O)nc2c1 (stereo not given)	-0.5	0.12
66	NN1C(=O)/C(=C\c2ccccc2)SC1=S	-4.5	nt
67	CC[n+]1oc(C)c2ccccc21	2.1	nt
68	CCCCC/C=C\C/C=C\CC1OC1C/C=C\CCCC(=O)O (stereo not given)	-0.2	-0.1
69	CCOC(=O)c1oc2ccccc2c1COC(=O)/C=C/c1cccs1	0.3	nt
70	COc1ccc(CCN2CC(C(=O)N(C)C)CC2=O)cc1OC (stereo not given)	1.8	nt
71	O=C(O)CCSc1ccccc1	nt	0.055
72	NNC(=O)c1ccc(Oc2ccc(Cl)cc2)nc1	0.0	0.012
73	COC(=O)c1ccccc1NC(=O)Nc1ccc(C(=O)N2CCCC2)cc1	1.5	-0.13
74	CC(C)CNCCCN1CCOCC1	0.5	-0.069
75	CCOC(=O)c1sc(NCc2ccco2)c(-c2nc3ccccc3s2)c1N	-5.8	nt
76	CCCCOc1cc(C(=O)NCCN(CC)CC)c2ccccc2n1	-2.2&-13	0.52&-0.0095&-0.31
77	CC1=CC(C)(C)NC(=O)N1c1cccc(F)c1	1.6	nt
78	COc1cccc(CNc2ccc(-c3nc4ncccc4o3)cc2)c1OC	1.0	-1.4
79	Cc1ccc2occ(CC(=O)Nc3nnc(C)s3)c2c1	2.4	-0.12
80	CNS(=O)(=O)c1cc(C)ccc1OC	-0.4	-0.49
81	CCN(CC)S(=O)(=O)c1cccc(C(=O)OCc2nnc(-c3ccccc3)o2)c1	-0.8	nt
82	CCOC(=O)c1cc(C)n(-c2ccc(I)cc2)c1C	-0.3	0.074
83	CCCN1CCN(C(=S)Nc2ccc(S(N)(=O)=O)cc2)CC1	2.5	-0.57
84	Cc1ccc2oc(-c3ccc4c(c3)C(=O)N(C)C4=O)nc2c1	-1.1	-0.8
85	O=CN1CCN(S(=O)(=O)c2ccc(S(=O)(=O)NC3CC3)cc2)CC1	0.6	1
86	CCN(CC)c1c(S(=O)(=O)c2ccccc2)cnc2cc3c(cc12)OCCO3	-0.3	-0.87
87	COC(=O)CC(C#N)(c1ccccc1)c1cccc(F)c1C#N (stereo not given)	nt	0.93
88	Cc1ccccc1CCN(Cc1cc2c(C)ccc(C)c2[nH]c1=O)C(=O)c1cnccn1	0.1	-0.67
89	CSc1ccc(NC(=O)C(C)N2CCN(C)CC2)cc1 (stereo not given)	-1.8	-0.018
90	O=C(Nc1ccc(Oc2ccccc2)cc1)c1ccccn1	-0.2	nt

Following part.
#	compound	Ab BasE inh	KSHV LANA nucl
91	CC1Oc2ccccc2OC1=O (stereo not given)	0.1	-0.38
92	CCC(O)(c1ccccc1)C(CN1CCOCC1)c1ccccc1 (stereo not given)	2.2	-0.6
93	CCC(=O)N1C(c2ccccc2)=C(C)Sc2nnc(C)n21	0.1	-1
94	COc1ccc(N2CCN(CCNc3ncnc4onc(C)c34)CC2)cc1	2.2	nt
95	CCCCSC1=C(C#N)C(=O)NC(CO)S1 (stereo not given)	0.2	-0.75
96	CCN(CC)S(=O)(=O)c1ccc2c(c1)nc(CCC(=O)OCCOc1ccc(C)cc1)n2C	-0.1	nt
97	O=C(CSc1nnc(-c2ccncc2)n1-c1ccccc1)NC(=O)NC1CCCC1	3.2	nt
98	O=c1[nH]c2ccc(NC(=S)Nc3ccccc3)cc2[nH]1	0.6	0.29
99	COc1ccc(S(N)(=O)=O)cc1C(=O)OCc1cn2cc(Cl)ccc2n1	-0.3	nt
100	C/C(N)=C(/C#N)C(=O)COc1ccccc1F	-0.2	nt
101	CCCCNC(=O)c1cc(S(=O)(=O)N(C)C)oc1C	2.3	-0.16
102	CCOC(=O)C(Cc1ccccc1)C(=O)Nc1ccc(OC)cc1 (stereo not given)	1.1	0.39
103	CSc1nc(NCCCO)c(C#N)c(-c2ccccc2)n1	-2.3	-1.3
104	COC(=O)c1sccc1OC(=O)c1nn(-c2ccccc2)nc1C	2.4	nt
105	O=C(/C=C/c1cccs1)N1CCN(C(=O)/C=C/c2cccs2)CC1	-2.1	2.2
106	O=C(O)C1CCCN(S(=O)(=O)c2ccccc2)C1 (stereo not given)	2.5	nt
107	CC(=O)Nc1ccc2[nH]c(C)c(C)c2c1	0.7	0.44
108	CCOC(=O)c1cnn2c1nc(Oc1cc(C(F)(F)F)cc(C(F)(F)F)c1)c1ccccc12	0.4	nt
109	O=S1(=O)CCN(Cc2ccccn2)CC1	nt	-0.9
110	COC(OC)c1[nH]c(=S)ncc1C(=O)O	0.3	-0.91
111	CCOC(=O)c1ccc2c(c1)N(CC)C(=O)c1ccccc1S2	0.8	0.18
112	O=C1CCN(c2ncc(C(F)(F)F)cc2Cl)CC1	nt	2.9
113	Cc1ccccc1OCCn1c(=S)[nH]c2ccccc21	1.0	nt
114	CC(C)C(=O)NC(C)c1nc(-c2ccccc2)no1 (stereo not given)	0.0	0.42
115	c1ccc(C2OCC3OC(c4ccccc4)OC3CO2)cc1 (stereo not given)	3.4	nt
116	C/C(=N\NC1=NCCCCC1)c1ccccc1	1.8	0.36
117	COCc1[nH]c(=S)c(C#N)cc1C(=O)OC	3.5	nt
118	CCOC(=O)c1ccc(NC(=O)CC2C(=O)OCC3CCCCN32)cc1 (stereo not given)	-3.8	nt
119	Cc1cc(C(F)(F)F)c(C(=O)O)cn1	0.9	-1.1
120	CC(=O)OC[C@H]1O[C@@H](NC(=S)NN)[C@H](OC(C)=O)[C@@H](OC(C)=O)[C@@H]1OC(C)=O	0.7	-0.15
121	CCOc1ccc2nc(SCC(=O)c3cc(C)n(C(C)COC)c3C)sc2c1 (stereo not given)	0.5	nt
122	CCc1ccc(N2COc3ccc(OC)cc3C2)cc1	0.2	1.9
123	Clc1nc2sccn2c1C=NCc1cccnc1	nt	-1.2
124	Cc1noc(N)c1C#N	0.1	2.6

The list is partial (hit frequency here may not be typical).
